HSD17B inh: qHTS Assay for Inhibitors of HSD17B4, hydroxysteroid (17-beta) dehydrogenase 4 | 3-hydroxyacyl-CoA dehydrogenase type-2 (Homo sapiens), Q99714 | recombinant HSD17B10, NADH fluorescence kinetic; many of its hits are not listed in these tables | Potency, µM (series often up to 57.1 µM), inactives show at the top dose activity change, negative = inhibition, hits mostly inhibitors | hit rate 7.6% among 75,000; active means well fitted inhibition curve with a large enough effect; inconclusive means small, poorly fitted or top-dose-only effect; inactive means no such curve, though single readings can be large or run the other way;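 further: the protocol describes HADH2 (HSD17B10) and not the HSD17B4 of the title; nearly all actives have a fitted effect of over 70% in size; most hits overshoot -100% by far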
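His-tagged E. coli-expressed HADH2 at 20 nM in 100 mM Tris-HCl pH 9.0 with 0.01 % Tween-20, preincubated 15 min with compound at room temperature. Reaction with 1 mM NAD+ and 90 uM beta-hydroxybutyryl coenzyme A; NADH fluorescence (360/450 nm) read kinetically over 4 min, last minus first point.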
Active calls of the source: *; ? = inconclusive; [ ] = remark or other dose. On the % scale 0 is the no-effect control and ±100 the full control effect; potency means the concentration at half of the fitted maximal effect. This is a subset, so the mix of outcomes need not match the whole.

mol	HSD17B inh
CCCC[C@@H]1C[C@H]1C(NC(=O)c1cccnc1)c1ccc(Cl)cc1 (stereo partly specified)	-4%
C=CCn1c(Cc2cccs2)nnc1SCC(=O)c1ccc(F)cc1	-6%
N#CC(C(=O)NC1CCCCC1)c1nc2ccccc2nc1N1CCCCC1 (stereo unspecified)	3%
COC(=O)[C@@H]1C[C@@]2(O)[C@@H](O)[C@@H](O)[C@@H](O)C[C@H]2N1Cc1ccc(C(C)(C)C)cc1	?
CCC1(C)Nc2ccccc2C(=O)N1O (stereo unspecified)	-9%
COc1ccc(OC)c(C2=Nn3c(nnc3-c3cc(OC)c(OC)c(OC)c3)SC2)c1	-3%
CCOC(=O)N1CCC(NS(=O)(=O)c2ccc3c(c2)oc(=O)n3C)CC1	-1%
O=C(N/N=C1/C[C@@H](O)[C@@H](O)[C@@H]2[C@@H]3C(=O)N(C4CCCCC4)C(=O)[C@H]3CC[C@@H]12)OCc1ccccc1	6%[11.4 µM]
COC(=O)c1cccc(CSc2nnc(-c3ccco3)n2-c2ccccc2)c1	-5%
N#Cc1c(/N=C/N2CCOCC2)sc2c1CCCCC2	2%
CC(CCc1ccccc1)NC(=O)c1cccnc1 (stereo unspecified)	1%
Cc1ccc(C)c2[nH]c(=O)c(CCNC(=O)c3ccc(S(=O)(=O)N(C)C)cc3)cc12	9%
CC(O)CNc1nc2ccccc2n1-c1ncnc2sc3c(c12)CCC3 (stereo unspecified)	3%
CCOc1ccc(S(=O)(=O)N(CC(=O)Nc2cc(C)on2)Cc2ccccc2Cl)cc1	-6%
CCOC(=O)c1ccccc1NC(=O)CN(c1ccccc1OC)S(C)(=O)=O	-6%
CC1=C(C#N)C(NC(=O)c2ccco2)(C(F)(F)F)C(=O)N1 (stereo unspecified)	9%
O=C(CN1CCC2(CC1)OCCO2)c1c[nH]c2ccccc12	6%
Cc1nc(NCc2ccccc2)c2nc(-c3ccccc3)n(CCCN3CCCCC3C)c2n1 (stereo unspecified)	20µM*
NC(=NC(=O)c1ccccc1)C1=C(O)CCC1=O	3%
O=C(Nc1sc2c(c1C(=O)NC1CC1)CCCCCC2)c1ccco1	?
CCOC(=O)c1sc(-c2ccccc2)cc1NC(=O)CSc1nnnn1C	?
O=C(CSc1nc2c([nH]c3ccccc32)c(=O)n1-c1ccccc1)N1CCOCC1	-2%
CSc1cccc(NC(=O)c2nnn(Cc3ccccc3)c2N)c1	61%[activator]
O=P(CO)(Cc1ccccc1)Cc1ccccc1	4%
CCN(CCO)C(=O)CC(c1ccccc1)c1cc(Br)ccc1O (stereo unspecified)	-14%
O=C(Cn1cnc2c(nnn2-c2ccccc2)c1=O)NCc1ccco1	-10%
Cc1ccc(CN2C(=O)/C(=C3\SC(N4CCOCC4)=NC3=O)c3cc(Br)ccc32)cc1	-5%
COc1ccc(-c2nc3cnc(N4CCOCC4)nc3n(C)c2=O)cc1	4%
COc1cccc(-c2cncnc2NCCc2cnc[nH]2)c1	-7%
COc1ccc(F)cc1S(=O)(=O)NC1CCCCCC1	4%
CCN1C(=O)[C@H]2[C@H]3[C@H](O)[C@H](O)C/C(=N/OCC(C)C)[C@H]3CC[C@@H]2C1=O	3%[11.4 µM]
COc1ccccc1N1CCN(C(=O)c2ccc(N3CCCC3=O)cc2)CC1	6%

Structural class, the compounds so far containing bromine (2)
mol	HSD17B inh
CCN(CCO)C(=O)CC(c1ccccc1)c1cc(Br)ccc1O (stereo unspecified)	-14%
Cc1ccc(CN2C(=O)/C(=C3\SC(N4CCOCC4)=NC3=O)c3cc(Br)ccc32)cc1	-5%

Continuation:
mol	HSD17B inh
CCn1c(-c2cccc(Br)c2)n[nH]c1=S	-1%
CCOC(=O)N1CCC(NS(=O)(=O)c2cc3c(cc2C)NC(=O)CO3)CC1	0%
O=c1[nH]nc(Sc2ncnc3sccc23)n1CCc1ccccc1	-6%
CCCc1cc(=O)oc2cc(OCC(=O)Nc3cc(C)on3)ccc12	32µM*
CN1CCc2nc(SCCOc3ccccc3)c(C#N)cc2C1	10µM*
CCN1CCN(CC(O)COc2ccc(C(C)=O)cc2)CC1 (stereo unspecified)	0%
CCc1cc2ccccc2nc1SCC(=O)N1CCN(C(=O)c2ccco2)CC1	-9%
COc1cc(C2c3c(oc4ccccc4c3=O)C(=O)N2c2ccc(C)cn2)ccc1O (stereo unspecified)	-4%
c1csc(-c2csc3nc(CN4CCOCC4)nc(NCc4ccc5c(c4)OCO5)c23)c1	-10%
Cn1nnc2cc(C(=O)NC(C)(C)C)ccc21	-1%
O=C(c1cccs1)N(CC1CCCO1)c1nc(-c2ccccc2)cs1 (stereo unspecified)	-25%
C=CCNc1nnc(SCC(=O)N2CCCCC2)c2ccccc12	?
COc1cccc(-c2nc(C(N)=O)c3[nH]c(=O)n(-c4ccccc4)c3n2)c1OC	-26%
Cc1ccc(NC(=O)CS(=O)CC(=O)N(CC(=O)NC2CCCC2)c2cc(C)ccc2C)cc1 (stereo unspecified)	-5%
O=C(c1ccco1)c1cn(CC(=O)N2CCCCC2)c2ccccc12	-3%
O=c1c(-c2ccccc2)nc2cnc(Oc3ccccc3)nc2n1C1CC1	-5%
CC(C)(C)c1ccc(C(=O)CSc2ncn[nH]2)cc1	-47%
O=C(c1ccncc1)N1CCC2(CC1)CN(C(c1ccccc1)c1ccccc1)C2	-2%
CCOC(=O)CSc1nnc(-c2cccc(Br)c2)o1	2%
O=C(CN1C(=O)c2ccccc2S1(=O)=O)NC1CCCC1	3%
CCC(=O)Nc1ccc2nc(C)n(CC(=O)Nc3ccccc3)c(=O)c2c1	?
O=C(Cc1cccs1)NCc1ccccc1	8%
O=C1SC(SCc2ccccc2)=N/C1=C\c1ccco1	13µM*
CCN(CC)c1ccc(NC(=O)CSc2nc3ccccc3c(=O)[nH]2)cc1	2%
COc1ccc(N(C(=O)c2ccc(Br)o2)C2C=CS(=O)(=O)C2)cc1 (stereo unspecified)	4%
CC(=O)Nc1ccc(S(=O)(=O)Nc2ccc(N3CCOCC3)cc2)cc1	0%
COc1cc2c(C)nc(C)c(C#N)c2cc1OC	-7%
CCCn1nc(C(=O)OCC(=O)c2ccc3c(c2)NC(=O)CO3)c2ccccc2c1=O	-17%
OC1(c2ccccc2F)CCN(Cc2nnc(-c3ccccc3)o2)CC1	6%
CCOc1cc(N2CCOCC2)c(OCC)cc1NC(=O)C(NC(=O)c1ccco1)C(C)C (stereo unspecified)	5%
Cc1ccccc1-n1nc(C(=O)O)c(C)c(C#N)c1=O	?
CN(c1ccccc1)S(=O)(=O)c1ccc(C(=O)OCC(=O)NCc2ccco2)cc1	-4%

Taken from the entries so far for reference:
mol	HSD17B inh
CCCC[C@@H]1C[C@H]1C(NC(=O)c1cccnc1)c1ccc(Cl)cc1 (stereo partly specified)	-4%
C=CCn1c(Cc2cccs2)nnc1SCC(=O)c1ccc(F)cc1	-6%
N#CC(C(=O)NC1CCCCC1)c1nc2ccccc2nc1N1CCCCC1 (stereo unspecified)	3%
COC(=O)[C@@H]1C[C@@]2(O)[C@@H](O)[C@@H](O)[C@@H](O)C[C@H]2N1Cc1ccc(C(C)(C)C)cc1	?
CCC1(C)Nc2ccccc2C(=O)N1O (stereo unspecified)	-9%

(list continues)
mol	HSD17B inh
Cc1ccc2nc(C3CCN(CC(=O)N4CCCCCC4)CC3)[nH]c2c1	13%
CCN=C1SC(C(N)=O)CC(=O)N1CC (stereo unspecified)	8%
Cc1nnc(SCC(=O)Nc2nccs2)s1	0%
CC(C)/C(=N/[N+](C)(C)C)c1ccccc1	-1%[11.4 µM]
COc1ccc(C2CC(c3cccc(C)c3)n3ncnc3N2)cc1 (stereo unspecified)	1%
Cc1nc2cnc(N3CCOCC3)nc2n(C)c1=O	32%[activator]
Nc1scc(-c2ccncc2)c1Cl	-8%
O=C(Nc1ccc(N2CCCCC2)c(C(=O)O)c1)c1ccco1	5%
CC(C)(C)OC(=O)N1CCC(C(=O)N2CCCCCC2)CC1	16%
COCCn1c(=O)c(C)nc2cnc(N(C)C)nc21	?
Brc1c(CSc2nc3ccccc3o2)nc2ncccn12	25µM*
Cc1ccc(S(=O)(=O)NC2=NCN(Cc3cccnc3)CN2)cc1	19%
Cc1c(C(=O)Nc2ccncc2)oc2c1C(=O)CC(C)(C)C2	-6%
NC[C@](O)(CS(=O)(=O)O)c1ccc(Cl)cc1	5%
CCn1c(SCC(N)=O)nnc1-c1ccc2[nH]c(C)c(C)c2c1	3%
Cc1cccc(N(C)C(=O)c2cc3cc4ccc(C)cc4nc3o2)c1	?
COc1cccc(N(C(=O)CNC(=O)c2ccco2)C(C(=O)NC2CCCC2)c2ccncc2)c1 (stereo unspecified)	3%
CCC(=O)c1ccc2c(c1)N(CCCN(C)C)c1ccccc1S2	-2%
FC(F)(F)c1ccccc1-c1nc(N2CCNCC2)c2ccccc2n1	-16%
CCc1nnc(SCC(=O)Nc2ccccc2)nc1CC	-15%
Cc1ccc(-c2noc(CN(C(=O)C34CC5CC(CC(C5)C3)C4)C(C)C)n2)cc1	10%
O=C(NCCc1ccncc1)Nc1ccccc1	1%
O=C(c1ccccc1)N1CC(COc2ccccc2)OC(c2cccnc2)O1 (stereo unspecified)	7%
CC(=O)Oc1c2occc2cc2ccc(=O)oc12	32µM*
COc1ccccc1-c1c(C)c(C)nc(N)c1C#N	10%
COC(=O)CSc1nc2sc(C)c(C)c2c(=O)n1C	0%
O=C(Nc1cnccn1)c1cccc(C(F)(F)F)c1	16µM*
CCOC(=O)c1cc2c(ccn2C)n1Cc1ccccc1C	?
c1ccc(Nc2cc(-c3ccccc3)nc3ncnn23)cc1	12%
CCOc1cc2[nH]c(=O)n(CCc3ccc(OC)c(OC)c3)c(=O)c2cc1OCC	-5%
O=C(NCCCN1CCCC1=O)c1ccc2c(c1)NC(=O)C(N1CCOCC1)S2 (stereo unspecified)	7%
CCOC(=O)C1=C(C)Nc2ncnn2C1c1cc(Br)ccc1F (stereo unspecified)	0%
O=C(c1ccc(C(=O)N2CCN(c3ccccc3F)CC2)nc1)N1CCN(c2ccccc2F)CC1	16%
O=Cc1ccccc1Cl	2%
COc1cccc(NC2=NC3(CCCCC3)N=C(N)N2)c1	7%
COC(=O)CSc1nc(N2CCCCC2)c2c(c1C#N)CCCC2	?
Cc1cccc(OCC(=O)Nc2ccccc2N2CCCCC2)c1	7%
ON=C1CCCCC1	2%
CS(=O)(=O)Nc1ccc(C(=O)Nc2ccccc2C(=O)N2CCCC2)cc1	8%
CC(C)(C)C(=O)c1sc(Nc2ccccc2)nc1N	-3%
O=C(Nc1ccc(C(=O)Nc2ccc(C(=O)Nc3ccc(S(=O)(=O)O)c4cc(S(=O)(=O)O)cc(S(=O)(=O)O)c34)cc2)cc1)Nc1ccc(C(=O)Nc2ccc(C(=O)Nc3ccc(S(=O)(=O)O)c4cc(S(=O)(=O)O)cc(S(=O)(=O)O)c34)cc2)cc1	1.3µM*
COc1ccccc1N1CCN(C(=O)c2cc(-c3ccc4c(c3)OCO4)on2)CC1	7%
CCCCCCc1nc2c(=O)[nH]c3ccccc3c2o1	10%
CCOC(=O)C(Cc1ccccc1)NS(=O)(=O)c1ccc(NC(C)=O)cc1 (stereo unspecified)	-2%
CCC(=O)N1CCc2cc(Br)cc(S(=O)(=O)NCCN3CCCCC3CC)c21 (stereo unspecified)	9%
COCCNC(=O)CSc1nc2cc(OC)c(OC)cc2c(=O)n1Cc1ccco1	7%
COc1ccc(OC)c(NC(=O)C2CCN(S(=O)(=O)c3c(C)noc3C)CC2)c1	-2%
CCCCOc1ccc(-c2nnc(-c3ccncc3)o2)cc1	25µM*
COc1ccc(-c2nnc(NC(=O)c3ccc(S(=O)(=O)N4COCC4(C)C)cc3)o2)cc1	?
Cc1nn(C(=O)c2cccs2)c(C)c1CN1C(=O)c2ccccc2C1=O	4%
O=C(C1CCCN1S(=O)(=O)c1ccc(Cl)c(Cl)c1)N1CCCCC1 (stereo unspecified)	3%
CCNc1nc(SCC(=O)OC)nc(N2CCOCC2)n1	11%
Cc1cc(C2C(C#N)=C(N)SC(N)=C2C#N)c(C)s1	-23%
COc1ccc(S(=O)(=O)N(CC(=O)NCC2CCCO2)c2ccccc2)cc1OC (stereo unspecified)	-1%
CS(=O)(=O)N(CC(=O)NCCSCc1cccc(Cl)c1)c1ccc2c(c1)OCO2	1%
Cc1cccc(CN2CCN(C(=O)c3ccccc3F)CC2)c1	-10%

Carrying on:
mol	HSD17B inh
COC(=O)CCC(=O)Nc1ccccc1C(N)=O	5%
Cc1cc(N2CCCCC2)n2nc(C)c(-c3ccccc3)c2n1	?
c1ccc2c(c1)[nH]c1c(N3CCCC3)ncnc12	-14%
Cc1nn(Cc2ccccc2)c(C)c1NC(=O)c1cc(-c2cccs2)on1	-11%
CSc1nnc(-c2ccccc2)o1	8%
Fc1ccc(Nc2ccnc(-c3ccc4c(c3)OCO4)n2)cc1	?
COc1cc(NC(=O)c2ccccc2Cl)c(OC)cc1NC(=O)CN1CCOCC1	0%
COc1cc(CNC2CCCC2)cc(OC)c1	-4%
COc1ccc2c(c1)c(=O)oc1cc(OCC(=O)N3CCCC(C)C3)ccc12 (stereo unspecified)	25µM*

Compound activity as filed in PubChem.
